Screening data from PubChem.
Lassa entry inh = inhibitors of Lassa virus binding or cell entry. Potency, µM (highest dose often 37.9 µM), without a hit: at the top dose activity change, negative = inhibition, actives largely listed as inhibitors. actives 1.2% (n = 300,000). Lassa virus pseudotype entry inhibition, cell reporter; control for the full effect not named in the record; active means well fitted inhibition curve with a large enough effect; inconclusive means small, poorly fitted or top-dose-only effect, or effect the other way; inactive means flat fitted curve, though single readings scatter; tested in HEK293 cells; also: % is scaled to controls: 0 for no effect and ±100 for the full control effect; nearly all actives have a fitted effect of over 50% in size; luciferase read-out
Cruzain Triton = blocks cruzain activity in presence of Triton detergent | actives 0.43% (n = 200,000) | AID 1478 | Potency, µM, for inactives: max response, negative = inhibition, hits mostly inhibitors | purified cruzain, Z-FR-AMC fluorescence, 0.01% Triton;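 also: plate controls were neutral wells for no effect and buffer without enzyme for full effect; nearly all actives have a fitted effect of over 40% in size; top concentration of the series not given in the record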
Target sequence (P25779 123-467 limits assumed): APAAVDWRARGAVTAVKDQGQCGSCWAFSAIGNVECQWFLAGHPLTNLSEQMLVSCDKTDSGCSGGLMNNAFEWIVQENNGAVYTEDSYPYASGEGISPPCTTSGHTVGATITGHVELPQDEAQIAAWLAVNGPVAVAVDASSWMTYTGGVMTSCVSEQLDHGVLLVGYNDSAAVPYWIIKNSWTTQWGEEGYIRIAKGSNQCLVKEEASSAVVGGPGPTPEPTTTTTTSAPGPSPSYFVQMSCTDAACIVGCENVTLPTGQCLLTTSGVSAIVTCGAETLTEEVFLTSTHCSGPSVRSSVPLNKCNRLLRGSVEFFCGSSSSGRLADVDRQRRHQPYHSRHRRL
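Detergent-containing arm of a paired screen for aggregation-based inhibition: 0.01% Triton X-100 present. Cruzain at 1.5 nM cleaved 2 uM Z-FR-AMC at pH 5.5 with 5 mM DTT; AMC fluorescence gain over 60 s measured activity.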
NS1 inh = influenza NS1 inhibition. Potency, µM (titrated, usually from 46.1 µM), without a hit: at the top dose activity, positive = more growth. AID 2326. S. cerevisiae slowed by influenza A NS1, growth recovery by OD600. actives 0.4% (n = 270,000); active means well fitted rising curve with a large enough effect; inconclusive means small, poorly fitted or top-dose-only effect; inactive means no such curve, though single readings can be large or run the other way; also: nearly all actives have a fitted effect of over 50% in size
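OD600 was taken as the measure of yeast growth restored by compound in an NS1-expressing S. cerevisiae strain. Cells had been washed out of glucose medium and diluted 1:100 into galactose -URA medium, pH 6.0.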
Marburg entry inh = blocks Marburg virus binding to or entry into cells. Marburg virus pseudotyped entry inhibition, cell reporter; control for the full effect not named in the record; about a third of the inactives were read at about 46 µM. Potency, µM (titrated, usually from 37.8 µM), without a hit: at the highest dose activity change, negative = inhibition, actives largely listed as inhibitors. actives 1.8% (n = 300,000). AID 540276; active = well fitted inhibition curve with a large enough effect; inconclusive = small, poorly fitted or top-dose-only effect, or effect the other way; inactive = flat fitted curve, though single readings scatter; tested in HEK293 cells; about a fifth of its hits are not listed in these tables; also: % is scaled to controls: 0 for no effect and ±100 for the full control effect; luciferase read-out
RE007 growth inh = less growth of the S. pombe RE007 Vpr strain; S. pombe RE007 Vpr strain, BacTiter-Glo ATP luminescence, 24 h; control for the full effect not named in the record; Potency, µM (doses to about 92.2 µM), without a hit: at the top dose activity change, negative = less growth; actives 0.21% (n = 360,000); AID 651644; active = well fitted falling curve with a large enough effect; inconclusive = small, poorly fitted or top-dose-only effect; inactive = no such curve, though single readings can be large or run the other way;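 also: % is scaled to controls: 0 for no effect and ±100 for the full control effect; nearly all actives have a fitted effect of over 50% in size; the assay follows cell death caused by Vpr and the record does not say whether a fall means rescue or toxicity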
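Fission yeast RE007 carrying one integrated HIV-1 vpr copy, seeded at OD 0.01 in PMG+AL medium with 23 nL pinned compound. Grown 24 h at 30 degrees; viability read by BacTiter-Glo luminescence after 5 min.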
StopGo reporter = FMDV 2A StopGo reporter, luciferase signal | Potency, µM (series often up to 57.9 µM), for the others: at the highest dose signal change, negative = less light | actives 1.2% (n = 410,000) | AID 1159524 | human cells with a luciferase reporter of 2A StopGo recoding; control for the full effect not named in the record; active = well fitted falling curve with a large enough effect; inconclusive = small, poorly fitted or top-dose-only effect; inactive = no such curve, though single readings can be large or run the other way; tested in HEK293T cells; also: % is scaled to controls: 0 for no effect and ±100 for the full control effect; nearly all actives have a fitted effect of over 45% in size; luciferase light after 4 h
Cruzain noTriton = inhibitors of Trypanosoma cruzi cruzain without detergent; P25779; purified cruzain, Z-FR-AMC fluorescence, no detergent; Potency, µM, for inactives: max response, negative = inhibition, actives largely listed as inhibitors; actives 2.3% (n = 200,000);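 also: plate controls were enzyme without inhibitor for no effect and buffer without enzyme for full effect; nearly all actives have a fitted effect of over 40% in size; top concentration of the series not given in the record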
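Purified cruzain at 1.5 nM, pre-incubated 15 min with compound at room temperature in 100 mM sodium acetate pH 5.5, 5 mM DTT, 0.00005% Triton X-100. Reaction started with 2 uM Z-FR-AMC; AMC fluorescence increase over 60 s gives rate.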
SARS PLP yeast = inhibitors of SARS-CoV papain-like protease in yeast. Potency, µM (titrated, usually from 32.9 µM), without a hit: at the highest dose activity, positive = growth rescue. actives 0.19% (n = 330,000). S. cerevisiae expressing SARS-CoV PLpro, growth rescue; control for the full effect not named in the record; active means well fitted rising curve with a large enough effect; inconclusive means small, poorly fitted or top-dose-only effect; inactive means no such curve, though single readings can be large or run the other way; also: 0% is about no effect; nearly all actives have a fitted effect of over 55% in size; growth read by luminescence after 48 h
* marks the source's active call; other numbers are inactive results; ? = inconclusive; nt = no result given; & = joins results of further samples; [ ] = another dose, or the depositor's remark. Unless noted, calls follow the shape of the dose curve; as a rule, active = well fitted curve in the direction sought with a large enough effect; inconclusive = small, poorly fitted or top-dose-only effect, or another doubt; inactive = no such curve, though single readings can be large; an effect the other way counts as inactive or inconclusive. Potency is read from the fitted curve at half-maximal effect.

SMILES	Lassa entry inh	Cruzain Triton	NS1 inh	Marburg entry inh	RE007 growth inh	StopGo reporter	Cruzain noTriton	SARS PLP yeast
CCCN1Cc2cccc(C(=O)Nc3cc(Cl)ccc3C)c2C1=O	12.7%[46.1 µM]	0.4%	nt	0.2%[46.1 µM]	nt	-13.9%	-6.7%	nt
COC(=O)C(C)NC(=O)C12CC3CC(C1)CC(c1ccc(C)cc1)(C3)C2 (stereo not given)	nt	nt	-13.5%	nt	19.5%	10.4%	nt	-4.6%
Fc1ccc2[nH]c3c(N4CCc5ccccc5C4)ncnc3c2c1	?	nt	-4.4%	?	1.6%	?	nt	-1.3%
O=C(c1ccccc1F)N1CCN(c2ncccn2)CC1	-2.6%	3.0%	-4.5%	9.8%	5.9%	-15.3%	-2.1%	7.0%
CCN(CC(=O)NC1CCS(=O)(=O)C1)S(=O)(=O)c1cc(Br)ccc1Br (stereo not given)	-6.8%	nt	nt	-4.4%	1.4%	-11.2%	nt	nt
COc1cccc2cc(CC(=O)c3ccc(C)c(C)c3)c(=O)oc12	nt	nt	-3.8%	nt	0.4%	46.7%[activator]	nt	0.6%
Cc1ccc(-n2cc(CN(C)Cc3nccn3C)c(-c3cccc(C)c3)n2)cc1	?	nt	-4.3%	?	-21.0%	-15.2%	nt	-0.2%
CCOC(=O)c1cc(C#N)c(Oc2ccccc2)nc1-c1ccccc1	-27.6%	-2.4%	-11.0%	-22.2%	0.6%	-26.7%	1.7%	-6.1%
CCN1CCN(CCNC(=O)c2ccc3c(c2)N(Cc2ccc(F)cc2)C(=O)/C(=C/c2ccccc2)S3)CC1	?	nt	nt	?	4.8%	6.2%	nt	-6.1%
C=CCN1C(=O)S/C(=C\c2ccc(N3CCOCC3)cc2C)C1=O	7.7%	-7.2%	2.7%	?	7.0%	0.0%	17.8%	-2.0%
CC(=O)c1ccc(NC(=O)Cn2c(=O)c3cccn3c3ccccc32)cc1	1.78µM*	-4.1%	nt	nt	nt	-8.3%	-3.4%	nt
Cn1c(Cn2c(=O)sc3ccccc32)nnc1SCC(=O)Nc1ccccc1F	nt	-4.3%	5.0%	nt	-3.9%	-25.2%	-2.2%	-0.3%
Cc1ccccc1NC(=O)COc1ccccc1C	nt	nt	-18.4%	nt	8.4%	40.2%[activator]	nt	8.9%
COc1ccc(C(=O)/C=C/Nc2cc(C)on2)cc1	7.2%	-4.1%	-90.9%	19.9%	-28.6%	nt	-10.3%	3.5%
CCCCCn1c(=O)[nH]c2cc(C(=O)N3CCN(CC)CC3)ccc2c1=O	3.6%	3.2%	-3.4%	9.1%	14.0%	-18.1%	8.3%	-4.7%
Cc1cc(Oc2ccccc2)nc(N)n1	-18.5%	8.3%	2.4%	14.6%	19.9%	14.6%	5.5%	nt
CCOC(=O)c1ncn2c1[C@@H]1CCCN1C(=O)c1cc(OC)ccc1-2	3.9%	-3.7%	-9.0%	?	nt	nt	4.6%	nt
Cc1noc(C)c1-c1nc(CSc2ccc(Cl)cc2)no1	?	nt	0.8%	-15.1%	-2.4%	-17.6%	nt	0.0%
CN1CCN(C(c2cccc(C(F)(F)F)c2)c2nnnn2C(C)(C)C)CC1 (stereo not given)	-4.2%	6.9%	3.8%	-20.1%	11.6%	5.4%	-14.8%	-2.5%
O=C(Nc1cccc2ncccc12)c1ccccc1Cl	nt	nt	6.9%	nt	-2.5%	1.3%	nt	-4.3%
COc1cccc(C(=O)COC(=O)c2ccc(NC(=O)c3ccccc3)cc2)c1	?	nt	nt	-17.2%	-6.6%	6.2%	nt	nt
COc1cc(C(=O)NCCCn2ccnc2)cc(OC)c1OC	nt	nt	2.8%	nt	11.2%	-4.0%	nt	-1.3%
N#CC(c1nc2ccccc2nc1N1CCCC1)S(=O)(=O)c1ccccc1 (stereo not given)	15.1%	-13.7%	11.7%	-0.7%	11.4%	1.6%	-18.8%	-17.9%
Cc1ccc(-c2ccc(/C=N/NC(=S)Nc3ccccc3)o2)cc1[N+](=O)[O-]	?	-5.9%	21.2%	?	1.1%	?	?	21.9%
COc1nc2ccccc2c(=O)n1-c1ccc(C)cc1	?	0.2%	-6.0%	-15.7%	2.8%	11.5%	3.8%	18.1%
CCN(C(=O)CN1C(=O)COc2ccc(S(=O)(=O)N3CCCCCC3)cc21)c1cccc(C)c1	8.5%[46.1 µM]	nt	-15.0%	?	-0.2%	4.7%	nt	1.2%
COc1ccc(C(CNC(=O)Cc2c(F)cccc2Cl)N2CCCCC2)cc1 (stereo not given)	-1.6%[46.1 µM]	nt	nt	?	-13.8%	4.2%	nt	-1.2%
COc1ccc(-c2onc(C)c2-c2ccccc2)c(O)c1	-21.0%	-8.8%	-10.8%	-20.1%&-20.1%	-5.8%	?	4.8%	3.2%
CC(=O)c1ccc(OCc2cc(C(=O)N3CCCCC3c3cccnc3)no2)cc1 (stereo not given)	-15.9%	nt	-57.1%	-25.6%	-5.0%	-4.4%	nt	-10.8%
Cc1onc(-c2ccccc2)c1C(=O)N/N=C/c1cccc(O)c1	?	0.6%	-6.8%	-11.8%	4.0%	?	2.0%	-3.2%
O=C(COC(=O)c1n[nH]c2ccccc12)c1cc(F)ccc1F	-14.5%	nt	nt	-20.3%[46.1 µM]	24.7%	-8.2%	nt	-9.4%
CCOC(=O)COc1cccc2c(=O)n(CC(=O)N3CCCc4ccccc43)ccc12	nt	-2.4%	-12.6%	nt	1.3%	-10.9%	-4.7%	1.4%
COc1ccc(Cl)cc1NC(=O)Cc1coc2c(C)c(C)ccc12	4.4%[46.1 µM]	-11.5%	nt	?	nt	-29.9%	-29.1%	nt
O=C(NCc1cccs1)c1nn(-c2ccccc2)nc1CO	?	-2.3%	nt	-8.8%[46.1 µM]	nt	0.0%	3.1%	nt
Cc1cccc(CS(=O)(=O)CC2Nc3ccc(C(=O)NCc4ccccc4Cl)cc3NC2=O)c1 (stereo not given)	-14.7%[46.1 µM]	0.3%	nt	nt	nt	-11.6%	?	nt
COc1ccc2[nH]c3ccc(OC)cc3c2c1	-14.5%	-0.4%	-16.9%	-5.4%	?	32.1%[activator]	8.3%	-2.5%
CN(C)S(=O)(=O)c1cccc(C(=O)OCC(=O)N2CCCC2=O)c1	nt	nt	19.8%	nt	1.8%	-9.0%	nt	-1.9%
O=C(c1cc[n+]([O-])cc1)N1CCCC(N2CCN(c3cccc(C(F)(F)F)c3)CC2)C1 (stereo not given)	0.9%	nt	?	-26.7%	9.1%	-6.7%	nt	7.6%
COC(=O)c1ccc(NC(=O)CSc2nncn2-c2cccnc2)cc1	2.7%	nt	4.4%	7.8%[46.1 µM]	23.1%	-4.1%	nt	0.8%
Cc1ccc(C23CC4CC(CC(NC(=O)NN)(C4)C2)C3)cc1	nt	nt	25.4%	nt	14.5%	-14.5%	nt	4.9%
COc1cccc(C(O)c2nc3ccccc3n2C)c1 (stereo not given)	?	nt	-6.6%	15.6%[46.1 µM]	-10.5%	16.1%	nt	-4.6%
COc1ccc(Nc2nc3nonc3nc2N2CCCCC2)cc1	?	nt	-4.9%	?	16.0%	-17.9%	nt	-1.3%
CC(C)CCN(C(=O)c1ccc(N2CCCC2=O)cc1)c1c(N)n(Cc2ccccc2)c(=O)[nH]c1=O	-1.7%	nt	nt	-0.5%	3.0%	32.7%[activator]	nt	-0.8%
O=C(NCc1ccccc1F)C1CCN(Cc2cc3ccccc3n2Cc2cccc(Cl)c2)CC1	?	-4.2%	nt	nt	nt	-17.5%	?	nt
Cc1ccc(NC(=O)C(C)N2CCCC2)cc1Cl (stereo not given)	-8.4%[46.1 µM]	nt	nt	?	-1.1%	2.8%	nt	-1.2%
CCOC(=O)c1c(C)[nH]c(C)c1S(=O)(=O)NCC(=O)Nc1cc(Cl)ccc1OC	8.6%[46.1 µM]	0.3%	nt	nt	nt	14.5%	-14.4%	nt
COc1cc2nc(Cl)nc(NCCO)c2cc1OC	nt	nt	-0.9%	nt	4.9%	0.8%	nt	2.3%
O=C(COC(=O)c1ccco1)c1ccc(F)cc1	29.1%	nt	-1.5%	3.0%[46.1 µM]	-5.2%	55.1%[activator]	nt	0.0%
COc1ccc2c(c1)c1nnc(SCC(=O)Nc3ccccc3F)nc1n2C	nt	nt	-2.9%	nt	-0.3%	5.6%	nt	0.0%
COc1ccc(-c2cc(C)no2)cc1S(=O)(=O)N(C)Cc1ccco1	nt	nt	-15.7%	nt	8.8%	-15.6%	nt	-9.1%
Cc1nn(C)c(Cl)c1CN1CCCC(CO)(Cc2ccccc2)C1 (stereo not given)	nt	nt	0.6%	nt	-8.4%	-9.5%	nt	-0.2%
O=C1c2ccccc2C(Nc2ccc(S(=O)(=O)N3CCOCC3)cc2)N1Cc1ccco1 (stereo not given)	nt	-2.0%	-70.0%	nt	9.1%	-17.8%	1.4%	-5.0%
COc1ccc(CCNC(=O)c2cc(-c3cc(C)ccc3O)n[nH]2)cc1OC	-13.1%	-1.1%	1.5%	?	19.9%	-20.7%	14.5%	-5.5%
O=c1[nH]c2ccsc2c(=O)n1-c1ccc(F)cc1	-1.3%	2.1%	-7.5%	-2.8%	-3.9%	19.6%	-4.9%	-0.6%
Cc1csc(NC(=O)Cc2c(F)cccc2Cl)n1	-17.9%[46.1 µM]	nt	1.7%	?	2.2%	29.3%	nt	-2.3%
O=C(CCn1c(=O)c2cccn2c2cccnc21)Nc1ccccc1C(F)(F)F	3.1%[46.1 µM]	0.7%	nt	nt	nt	-1.9%	21.8%	nt
CC(=O)Nc1ccc2nc(SCCOc3cc(C)cc(C)c3)sc2c1	-18.3%[46.1 µM]	-5.4%	nt	-5.6%[46.1 µM]	nt	1.3%	?	nt
O=C(c1cc2ccccc2oc1=O)N1CCN(C(=O)C2CCCO2)CC1 (stereo not given)	49.7%[14.3 µM]	-1.9%	4.4%	5.1%	7.8%	-13.7%	-3.6%	3.9%
COc1cccc2c(=O)n(CC(=O)NCCc3ccccc3)ccc12	nt	nt	-3.8%	nt	7.0%	-6.9%	nt	-0.9%
